# Ecoli rRNA inh: reduced GFP signal of wild-type E. coli, primary screen, bacterial rRNA inhibitor project, GFP/RFP fluorescence, OD600, single point | E. coli WT GFP vs humanized-ribosome RFP mutants, 24 h; hits give low values; DMSO median 0, no signal -100 | GFP signal change (wild-type ribosome), % (concentration not given with the values) | 350,000 tested, 1.6% active;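 active means significant combined selectivity score with lowered wild-type GFP, culture density cut under 30%, mutant RFP and density less affected; inactive means any of these conditions unmet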; further: one replicate is shown; some compounds called inactive have numbers as strong as hits
# AF4-AF9 inh: inhibitors of AF4 peptide binding to AF9, primary screen, biochemical, AlphaScreen, biotin-AF4 peptide, FLAG-AF9, single point. inhibition, % at 10 µM. 350,000 tested, 0.47% active. Protein AF-9 (Homo sapiens), P42568. AID 651704, 2012;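 active means every replicate reaching a set inhibition limit, whatever the replicate mean, cut at about 25% in these data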;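 further: 0% = plate neutral control median and 100% = total signal loss; the record names both 10 and 1 µM as test concentration; the first replicate is given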
# Target sequence (P42568 whole entry, looked up): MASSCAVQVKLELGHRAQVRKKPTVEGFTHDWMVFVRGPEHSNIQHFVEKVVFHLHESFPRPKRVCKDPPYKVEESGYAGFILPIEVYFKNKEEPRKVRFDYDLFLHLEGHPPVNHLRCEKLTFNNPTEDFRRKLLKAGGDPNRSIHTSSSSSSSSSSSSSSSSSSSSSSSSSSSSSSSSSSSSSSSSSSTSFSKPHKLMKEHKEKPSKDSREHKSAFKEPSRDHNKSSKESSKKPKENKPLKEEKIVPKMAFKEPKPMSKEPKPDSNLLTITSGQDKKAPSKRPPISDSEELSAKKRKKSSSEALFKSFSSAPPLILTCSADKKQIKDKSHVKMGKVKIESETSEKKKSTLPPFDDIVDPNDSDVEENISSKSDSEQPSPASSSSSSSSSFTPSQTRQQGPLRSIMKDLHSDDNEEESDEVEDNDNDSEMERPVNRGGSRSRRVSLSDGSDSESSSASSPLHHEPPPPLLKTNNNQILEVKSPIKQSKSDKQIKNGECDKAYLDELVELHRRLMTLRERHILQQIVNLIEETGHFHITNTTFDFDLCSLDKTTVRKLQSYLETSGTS
# Ecoli rRNA inh OD600: further read-out of Ecoli rRNA inh, marked with its call; OD600 change, %; measured here: OD600 growth;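 optical density of the mix in the first replicate; 0 = DMSO median and -100 = no signal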
# Ecoli rRNA inh RFP: recorded beside Ecoli rRNA inh, whose call it bears; RFP signal change, %; measured here: RFP humanized mutant strains;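 first replicate; 0 = DMSO median and -100 = no signal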
# * marks the source's active call; other numbers are inactive results; & = joins results of further samples.
nr	SMILES	Ecoli rRNA inh	Ecoli rRNA inh OD600
1	COc1ccc(-c2ccc3c(c2)[C@@H]2[C@@H](CCN2C(=O)Nc2ccc(F)cc2)[C@H](CO)N3C)cc1	-10	-2
2	COc1cccc(CN2C[C@@H](C)[C@H](OC)CN(C)C(=O)c3ccc(NS(=O)(=O)c4cn(C)cn4)cc3OC[C@H]2C)c1	-1	-3
3	C[C@@H]1CCCCO[C@@H](CN(C)C(=O)Cc2ccccc2)[C@H](C)CN([C@H](C)CO)C(=O)c2cc(NC(=O)Nc3ccc(F)cc3)ccc2O1	2	1
4	O=C(N[C@H]1CC[C@H](CCn2cc(C3CC3)nn2)O[C@H]1CO)c1cccnc1	0	-1
5	CCC(=O)Nc1ccc2c(c1)OC[C@@H](C)N(CCC(F)(F)F)C[C@H](C)[C@@H](OC)CN(C)C2=O	-1	-2
6	C[C@@H]1CN([C@H](C)CO)S(=O)(=O)c2ccc(C#CC3CC3)cc2O[C@@H]1CN(C)C(=O)C1CC1	-2	3
7	C[C@H]1CN([C@@H](C)CO)S(=O)(=O)c2ccc(-c3ccncc3)cc2O[C@H]1CN(C)C(=O)C1CC1	3	-14
8	C[C@H]1CN([C@@H](C)CO)C(=O)c2cc(-c3ccncc3)cnc2O[C@@H]1CN(C)CC1CCCCC1	8	24
9	CC(C)NC(=O)N(C)C[C@@H]1Oc2c(cccc2N(C)C)C(=O)N([C@@H](C)CO)C[C@@H]1C	-1	4
10	COc1ccccc1-c1cn(CC[C@@H]2CC[C@@H](NC(=O)NC(C)C)[C@@H](CO)O2)nn1	5	-3
11	O=C(C[C@H]1CC[C@@H]2[C@H](COC[C@H](O)CN2Cc2cccc(C(F)(F)F)c2)O1)NCCc1ccccc1	2&-21	-6&-28
12	C[C@@H]1CN([C@@H](C)CO)C(=O)Cc2cc(NC(=O)Cc3cn(C)c4ccccc34)ccc2O[C@H]1CN(C)C(=O)Nc1ccc2c(c1)OCO2	-3	-5
13	C[C@H](CO)N1C[C@H](C)[C@H](CN(C)S(C)(=O)=O)Oc2c(NC(=O)C3CCOCC3)cccc2C1=O	4	3
14	Cc1ccc(S(=O)(=O)Nc2ccc3c(c2)C(=O)N([C@@H](C)CO)C[C@@H](C)[C@@H](CN(C)C)OCCCC[C@@H](C)O3)cc1	-2	0
15	Cc1nc2c(OCc3ccc(C(F)(F)F)cc3)cccn2c1N(C)C(=O)CCC1CCCC1	-4	-15

nr	Ecoli rRNA inh RFP	AF4-AF9 inh
1	0.5	30*
2	1.0	-2.0
3	-0.9	2.9
4	-1.0	2.1
5	-0.1	0.8
6	5.3	0.4
7	-0.2	-1.4
8	-2.5	-4.7
9	1.5	0.5
10	0.8	-1.5
11	5.9&1.1	-15&1.6
12	0.9	5.8
13	1.2	-5.2
14	1.2	3.4
15	11	1.0

# Down the list, quoted from above.
# Ecoli rRNA inh OD600 for entries 1 to 4 → -2, -3, 1, -1
# Ecoli rRNA inh RFP for entries 1 to 4 → 0.5, 1.0, -0.9, -1.0
# AF4-AF9 inh for entries 1 to 4 → 30*, -2.0, 2.9, 2.1

# (listing goes on)
nr	SMILES	Ecoli rRNA inh	Ecoli rRNA inh OD600
16	CC(C)NC(=O)Nc1ccc2c(c1)C(=O)N([C@@H](C)CO)C[C@@H](C)[C@@H](CN(C)Cc1ccc(C(F)(F)F)cc1)OCCCC[C@@H](C)O2	0	-7
17	C[C@H]1CCCCO[C@H](CN(C)S(=O)(=O)c2ccccc2)[C@@H](C)CN([C@@H](C)CO)C(=O)c2cc(NS(=O)(=O)c3ccc(Cl)cc3)ccc2O1	-1	-2
18	CN1c2ccc(-c3cccc(C#N)c3)cc2[C@H]2[C@H](CCN2C(=O)NC2CCCC2)[C@@H]1CO	-5	-12
19	C[C@@H]1CN([C@H](C)CO)C(=O)c2cccc(NS(=O)(=O)c3ccc(F)cc3)c2O[C@@H]1CN(C)S(C)(=O)=O	4	3
20	COCc1cn(CC[C@@H]2CC[C@H](NC(=O)Nc3c(C)noc3C)[C@@H](CO)O2)nn1	2	8
21	COc1ccc(S(=O)(=O)N(C)C[C@@H]2OCCCC[C@@H](C)Oc3ccc(NC(=O)CCCN(C)C)cc3C(=O)N([C@H](C)CO)C[C@@H]2C)cc1	6	2
22	O=C(Nc1ccc2c(c1)OCO2)N[C@H]1CC[C@@H](CCNC(=O)C2CCOCC2)O[C@@H]1CO	0	5
23	CCCNC(=O)[C@@H]1[C@@H](CO)[C@@H]2Cn3c(ccc(C4=CCCCC4)c3=O)[C@H]1N2	1	1
24	CNC[C@H]1OCCCC[C@H](C)Oc2ccc(NS(=O)(=O)c3ccc(C)cc3)cc2C(=O)N([C@@H](C)CO)C[C@@H]1C	1	1
25	C[C@@H]1CN([C@@H](C)CO)C(=O)c2cc(NC(=O)C3CC3)ccc2O[C@H]1CN(C)S(C)(=O)=O	8	2
26	COC(=O)[C@@]1(Cc2ccc(OC)cc2)[C@H]2c3cc(C(=O)N4CCCC4)n(CCN4CCOCC4)c3C[C@H]2CN1C(=O)c1ccccc1	-18	-15
27	COc1ccc(S(=O)(=O)N[C@@H]2CC[C@@H](CC(=O)N3CCC(Cc4ccccc4)CC3)O[C@H]2CO)cc1	3	-26
28	COc1ccc(NC(=O)N(C)C[C@@H]2OCCCC[C@@H](C)Oc3ccc(NC(=O)c4ccccc4)cc3C(=O)N([C@@H](C)CO)C[C@H]2C)cc1	-3	-1
29	CNC[C@@H]1Oc2ccc(NC(=O)Nc3ccc4c(c3)OCO4)cc2C(=O)N([C@H](C)CO)C[C@@H]1C	4	3
30	CO[C@@H]1CN(C)C(=O)c2ccc(NC(=O)Nc3c(C)noc3C)cc2OC[C@@H](C)N(CC2CC2)C[C@@H]1C	3	7

nr	Ecoli rRNA inh RFP	AF4-AF9 inh
16	1.5	1.2
17	0.3	-3.8
18	3.5	6.3
19	0.4	-2.2
20	-3.0	1.0
21	-1.9	-2.3
22	-3.6	-0.1
23	-4.3	1.5
24	-1.1	-3.2
25	-2.5	-1.8
26	7.1	4.8
27	10	-0.3
28	-1.4	-1.9
29	-0.7	5.8
30	-1.8	-3.1

# 3 entries already listed, ordered by length of the SMILES, ascending.
nr	SMILES	Ecoli rRNA inh	Ecoli rRNA inh OD600
8	C[C@H]1CN([C@@H](C)CO)C(=O)c2cc(-c3ccncc3)cnc2O[C@@H]1CN(C)CC1CCCCC1	8	24
29	CNC[C@@H]1Oc2ccc(NC(=O)Nc3ccc4c(c3)OCO4)cc2C(=O)N([C@H](C)CO)C[C@@H]1C	4	3
17	C[C@H]1CCCCO[C@H](CN(C)S(=O)(=O)c2ccccc2)[C@@H](C)CN([C@@H](C)CO)C(=O)c2cc(NS(=O)(=O)c3ccc(Cl)cc3)ccc2O1	-1	-2

nr	Ecoli rRNA inh RFP	AF4-AF9 inh
8	-2.5	-4.7
29	-0.7	5.8
17	0.3	-3.8

# Other records follow:
nr	SMILES	Ecoli rRNA inh	Ecoli rRNA inh OD600
31	COC(=O)C[C@@H]1CC[C@@H](NS(=O)(=O)c2ccc(OC)cc2)[C@@H](CO)O1	1&7	-6&10
32	CCCCC[C@@H](C)N1C[C@@H](COCc2ccccc2)Oc2cc(N3CCC[C@@H]3COC)ccc2S1(=O)=O	-7	9
33	O=C(Cc1cccnc1)N1CC(=O)N2[C@H](C1)[C@@H](c1ccc(C3=CCCC3)cc1)[C@@H]2CO	-13	5
34	C[C@H](CO)N1C[C@H](C)[C@H](CN(C)CC2CC2)Oc2c(NS(=O)(=O)c3ccccc3)cccc2C1=O	3	7
35	CCCNC(=O)[C@H]1[C@H](CO)[C@H]2Cn3c(ccc(-c4ccc(F)cc4)c3=O)[C@@H]1N2Cc1ccccc1F	-4	-8
36	CC=Cc1ccc2n(c1=O)C[C@H]1[C@H](CO)[C@@H](C(=O)NC3CCCC3)N(Cc3ccccc3)[C@@H]21 (mixture of isomers)	-6	-12
37	C[C@@H]1CCCCO[C@@H](CN(C)Cc2ccc(C(F)(F)F)cc2)[C@@H](C)CN([C@@H](C)CO)C(=O)c2cc(NC(=O)CCC(F)(F)F)ccc2O1	5	4
38	C[C@H]1CN([C@@H](C)CO)C(=O)Cc2cc(NC(=O)Nc3ccccc3)ccc2O[C@H]1CN(C)CC1CC1	4	2
39	C[C@@H]1CCCCO[C@@H](CN(C)S(=O)(=O)c2cn(C)cn2)[C@@H](C)CN([C@H](C)CO)C(=O)c2cc(NC(=O)Nc3ccc(F)cc3)ccc2O1	2	4
40	COc1cc(CNC(=O)Nc2nnc([C@@H]3C[C@H](O)[C@@H](CO)O3)s2)cc(OC)c1OC	12	9
41	C[C@H](CO)N1C[C@H](C)[C@H](CN(C)S(=O)(=O)c2ccc(F)cc2)Oc2c(NC(=O)Nc3ccc4c(c3)OCO4)cccc2C1=O	-8	-21
42	Cc1ccc(-c2ccc([C@@H]3[C@@H](CO)N4C(=O)CN(C(=O)Nc5cccc(F)c5)C[C@@H]34)cc2)cc1	-7	-44
43	C[C@H]1CN([C@@H](C)CO)S(=O)(=O)c2ccc(-c3cncnc3)cc2O[C@H]1CN(C)C(=O)c1cccc(F)c1	0	8
44	O=C(Nc1ccc(C(F)(F)F)cc1)N[C@H]1CC[C@@H](CC(=O)N2CCCCC2)O[C@H]1CO	-6	-7
45	O=C(NCC[C@H]1CC[C@@H](NC(=O)C2CCCC2)[C@@H](CO)O1)Nc1ccc(Cl)cc1	-28	-46

nr	Ecoli rRNA inh RFP	AF4-AF9 inh
31	-2.0&1.1	-2.2&0.9
32	-4.5	-4.2
33	-2.3	-1.9
34	-1.0	-1.9
35	3.1	3.2
36	5.6	-3.6
37	2.3	2.5
38	0.7	2.6
39	0.0	-2.7
40	7.6	-4.0
41	-6.3	7.5
42	32	-5.5
43	-3.4	-1.5
44	3.2	4.4
45	11	7.1

# (cont.)
nr	SMILES	Ecoli rRNA inh	Ecoli rRNA inh OD600
46	O=C(C[C@H]1C[C@@H]2c3cc(NS(=O)(=O)c4ccc(F)cc4)ccc3O[C@@H]2[C@@H](CO)O1)NCc1ccncc1	1	6
47	CCCNC(=O)Nc1ccc2c(c1)C(=O)N(C)C[C@H](OC)[C@H](C)CN(C(C)=O)[C@H](C)CO2	1	-1
48	CC(=O)Nc1ccc(C(=O)N2CCCCC2c2cc(C(=O)NCc3cccnc3)no2)cc1 (configuration not stated)	0	10
49	COc1ccc(NC(=O)N(C)C[C@H]2OCc3ccccc3-c3c(n(C)c4ccccc34)C(=O)N([C@H](C)CO)C[C@H]2C)c(OC)c1	0	-3
50	Cc1noc(C)c1NC(=O)N(C)C[C@H]1Oc2ncc(/C=C/c3ccccc3)cc2C(=O)N([C@@H](C)CO)C[C@@H]1C	7	10
51	C[C@@H]1CN([C@@H](C)CO)S(=O)(=O)c2ccc(C#Cc3ccccc3)cc2O[C@@H]1CN(C)C(=O)C1CC1	-6	-6
52	CC=Cc1ccc2n(c1=O)C[C@H]1[C@H](CO)[C@@H](C(=O)NCC3CC3)[C@@H]2N1CCC(F)(F)F (mixture of isomers)	-1	-8
53	C[C@@H]1CN([C@@H](C)CO)C(=O)Cc2cc(NS(=O)(=O)c3cn(C)cn3)ccc2O[C@@H]1CN(C)C(=O)Nc1ccc2c(c1)OCO2	1	8
54	CCCCNc1cccc2c1S(=O)(=O)N[C@@H](CC(C)C)CO2	-2	-5
55	COc1ccc(NC(=O)N(C)C[C@H]2OCCCC[C@H](C)Oc3ccc(NC(=O)c4ccccc4)cc3C(=O)N([C@@H](C)CO)C[C@@H]2C)cc1	-5	-2
56	CC(C)NC(=O)N(C)C[C@H]1Oc2ncc(C#CC3CC3)cc2C(=O)N([C@H](C)CO)C[C@H]1C	2	0
57	COc1ccc(NC(=O)Nc2ccc3c(c2)C(=O)N([C@H](C)CO)C[C@@H](C)[C@H](CN(C)Cc2ccc(C(F)(F)F)cc2)OCCCC[C@@H](C)O3)cc1	2	-3
58	O=C(C1CCOCC1)N1CC(=O)N2[C@H](CO)[C@H](c3ccc(C#CCc4ccccc4)cc3)[C@@H]2C1	4	-1
59	C[C@@H]1CCCCO[C@H](CN(C)Cc2ccccc2)[C@H](C)CN([C@@H](C)CO)C(=O)c2cc(NS(C)(=O)=O)ccc2O1	0	6
60	O=C(C[C@H]1C[C@@H]2c3cc(NC(=O)c4cccnc4)ccc3O[C@@H]2[C@@H](CO)O1)NCc1ccc(Oc2ccccc2)cc1	-8	-22
61	CCCNC(=O)[C@H]1[C@H](CO)[C@H]2Cn3c(ccc(-c4cccc(F)c4)c3=O)[C@H]2N1C(C)=O	3	1
62	C[C@@H]1CN([C@H](C)CO)C(=O)c2cccc(N(C)C)c2O[C@H]1CN(C)Cc1ccc(C(=O)O)cc1	2	11
63	CC(=O)N(C)C[C@@H]1Oc2cc(C#Cc3cccnc3)ccc2S(=O)(=O)N([C@H](C)CO)C[C@@H]1C	1	17

nr	Ecoli rRNA inh RFP	AF4-AF9 inh
46	-1.8	2.3
47	0.0	4.3
48	-2.4	0.6
49	5.1	0.0
50	-1.4	2.6
51	4.1	-1.8
52	-4.2	-1.2
53	-1.6	-31
54	-1.5	-1.1
55	1.3	-0.9
56	-3.6	-1.5
57	5.8	4.0
58	-0.4	2.3
59	-2.1	-3.3
60	8.0	2.2
61	-1.5	-1.1
62	-2.2	-12
63	0.7	-0.3

# Assay outcomes (PubChem BioAssay)

# Some of the compounds tested, so the mix of outcomes need not match the whole.
